Source: PubChem BioAssay (PCMD)
Biofilm kill mix: mixtures killing C. albicans biofilm; AID 1242; inhibition, % at 7.6 µM; actives 0.02% (n = 120,000); C. albicans biofilm persisters + clotrimazole, fluorescence viability; primary screen in compound mixtures of four per well;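 active means inhibition above 30.3% in the primary screen of four-compound pools, then above 30% when the compound was retested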;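 further: compounds exposed to preformed 24 h biofilms for 48 h; the number belongs to the whole pool; some results filed as inactive read as strong as hits; inactives centre near 12; 0% = biofilm with clotrimazole alone and 100% = kill control; retested singly at about 60 µM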
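Probe or stimulus – Clotrimazole 50 µg/mL co-treatment · System – C. albicans biofilms · Schedule – 24 h biofilm formation, then 48 h compound exposure, 37 °C · Evaluation – percent inhibition of biofilm viability · Technique – 2-h Alamar Blue fluorescence, 535/590 nm excitation/emission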
The depositor's hits bear a star. Not all compounds are listed (hit frequency here may not be typical).

SMILES	Biofilm kill mix
CN(C)c1ccc(-c2cccc(C3CC=CC4C3C(=O)N(Cc3ccccc3)C4c3ccc4ccccc4c3)c2)cc1 (centres undefined)	20
Cc1ccccc1OCC(O)CN1CCN(c2ccc(Cl)cc2)CC1 (centres undefined)	21
CC(C)CCNC(=O)C1CC(c2ccccc2C(F)(F)F)=NO1 (centres undefined)	14
COc1cc(-c2[nH]ncc2CN2CCSCC2)cc(OC)c1OC	29
Cc1cccc(NC(=O)C2CCN(S(=O)(=O)c3c(C)[nH]c(=O)[nH]c3=O)CC2)c1	12
O=[N+]([O-])c1ccc(OCc2cnc(Cl)s2)c([N+](=O)[O-])c1	8
CN(C)S(=O)(=O)c1ccc(C(=O)OCc2nnc(-c3ccccc3)o2)cc1	27
COc1ccc(/C=N/Nc2ccccn2)cc1OC	26
Cc1nn2c(N3CCN(CCO)CC3)c3c(nc2c1-c1ccccc1)CCCC3	15
C/C(CCN1CCc2nc(-c3ccccc3)c(-c3ccccc3)cc2C1)=N\OC[C@@H](C)[C@H](OCc1ccccc1)C(C)C	11
O=S(=O)(c1ccccc1)N1CCN(C(=S)NCCCN2CCOCC2)CC1	11
Cc1nc(-c2ccccc2)[nH]c(=O)c1Oc1ccc(Cl)cc1Cl	18
CCN(CC)C(=O)c1sc(NC(=O)c2cccs2)c(C#N)c1C	12
COc1ccc(-c2cnc(NCc3cc4c(cc3[N+](=O)[O-])OCO4)n2C)cc1	14
CCCN1C(=O)SC(CC(=O)Nc2ccc(C)cc2)C1=O (centres undefined)	14
CCOC(=O)c1c(N)nn(C(=O)c2ccccc2F)c1-c1ccc(OC)cc1	16
Cn1cccc1CC(=O)NNC(=S)Nc1ccccc1Cl	14
COc1cc(/C=C/CO)cc(OC)c1O[C@@H]1O[C@H](CO)[C@@H](O)[C@H](O)[C@H]1O	15
Cc1ccc(NC(=O)c2cc(-c3ccc(F)cc3)on2)cc1C	7
CC(C)(C)C(=O)Nc1sc2c(c1C#N)CCC2	10
CCC(=O)NC(Nc1ccccn1)(C(=O)OC)C(F)(F)F (centres undefined)	13
CCCCC/S(CC1CC1(Cl)Cl)=N\S(=O)(=O)c1ccc(C)cc1 (centres undefined)	10
Cc1[nH]c2ccccc2c1C(=O)CSC(=S)N1CCCCC1	26
Cc1ccc(-c2sc(C(=O)NN)c(C)c2C#N)cc1	20
CCS(=O)(=O)Nc1ccccc1C(N)=O	15
COc1ccc(CCn2c(NN)nc3c2c(=O)[nH]c(=O)n3C)cc1	15
Cc1ccc(S(=O)(=O)N(C)CCCC(=O)NC(C)(C)C)cc1	12
Cc1ccncc1C(N)=O	18
C/C(=N\Nc1cc(-c2ccccc2)nc(-c2ccccc2)n1)c1ccc(O)c(C)c1	14
COc1cc(C(=O)NNC(=S)Nc2ccc(S(N)(=O)=O)cc2)cc(OC)c1OC	8
Cn1c(=O)c2c(nc(NCc3ccco3)n2CC(O)CO)n(C)c1=O (centres undefined)	5
CC(C)c1ccc(CN2CC(C(=O)Nc3ccccc3)CC2=O)cc1 (centres undefined)	22
COC(C(=O)Nc1ccc(Cl)cc1C)c1ccccc1 (centres undefined)	19
O=C1Nc2ccc(Br)cc2/C1=C/C1CC=CCC1 (centres undefined)	-1
CCOC(=O)c1c(C(F)(F)F)cc(-c2ccc(F)cc2)nc1C	10
O=C(/C=C/c1cn(-c2ccccc2)nc1-c1ccccc1)Nc1ccc(C(=O)O)cc1	0
Cc1ccc(S(=O)(=O)c2cc(OC(=O)c3ccco3)ccc2OC(=O)c2ccco2)cc1	21
CC1Cc2ccccc2N1C(=S)NC(=O)C1(C)CC1(Cl)Cl (centres undefined)	6
COc1ccccc1NS(=O)(=O)c1ccc(O)c(C(=O)OCC(=O)Nc2ccccc2F)c1	7
O=C(COc1ccccc1)N1CCCC1	10
COc1ccccc1N(/N=C1\Sc2ccccc2C1=O)C(C)=O	13
Cc1nc(-c2ccc(Cl)cc2)sc1C1(C)CC(c2cccnc2)=NO1 (centres undefined)	16
O=C1c2cccc3cc([N+](=O)[O-])cc(c23)C(=O)N1c1ccccc1O	-3
CC(C)CCN1CCN(Cc2cnc(-c3ccccc3)s2)CC1CCO (centres undefined)	44
COc1ccc(S(=O)(=O)CCC(=O)N(C)c2ccc(OC)cc2OC)cc1	13
COc1ccc(C/C(C)=N\NC(=O)c2cn(C)c3ccccc23)cc1OC	21
COc1ccc(/C=N/NC(=O)CNS(=O)(=O)c2ccc(C)cc2)cc1	16
Cc1ccc(S(=O)(=O)N(C)CC(=O)OCC(=O)N2CCN(c3ccccc3)CC2)cc1	13
CCNC(=O)c1ccccc1-c1nc(-c2ccccc2)no1	29
C/C(=N\NC(=O)CSCc1ccccc1Br)c1cccc([N+](=O)[O-])c1	17

More results follow:
SMILES	Biofilm kill mix
CCOC(=O)c1c(-c2ccc(OC)cc2)csc1NC(=O)C1CCCO1 (centres undefined)	4
COC(=O)c1cccc(NC(=S)NC(C)C)c1	9
COc1ccc(NC(=S)N2CCN(c3ncccn3)CC2)c(OC)c1	19
COc1ccccc1C/C(N)=N/OC(=O)/C=C/c1ccccc1	3
O=C(CC1Sc2ccccc2NC1=O)Nc1ccccc1[N+](=O)[O-] (centres undefined)	7
c1ccc(CCNc2nc(-c3ccccn3)cs2)cc1	20
Cc1cc2oc(C(=O)Nc3c(C)n(C)n(-c4ccccc4)c3=O)c(C)c2cc1C	17
COc1ccc(C)cc1S(=O)(=O)N(CC(=O)Nc1cccc([N+](=O)[O-])c1)c1ccc(C)c(C)c1	7
NS(=O)(=O)c1ccc(N=C2C(=O)Nc3ccccc32)cc1	26
CC(=O)Nc1ccc(NC(=O)C(C)Oc2ccc(Cl)cc2Cl)cc1 (centres undefined)	5

2 of the compounds above, with each value named:
c1ccc(CCNc2nc(-c3ccccn3)cs2)cc1
  Biofilm kill mix: 20

Cc1cc2oc(C(=O)Nc3c(C)n(C)n(-c4ccccc4)c3=O)c(C)c2cc1C
  Biofilm kill mix: 17

(next part)
SMILES	Biofilm kill mix
CCOC(=O)/C(=N/O)C1=NC(C)(C)Cc2cc(C)c(C)cc21	17
Cc1ccc(S(=O)(=O)N(C)C)cc1NC(=O)COC(=O)/C=C/c1cnc2ccccc2n1	13
CCCNC(=O)CN(c1ccccc1)S(=O)(=O)c1ccc(OC)c(OC)c1	8
S=c1cnc2ccccc2[nH]1	-9
Cc1ccccc1NC(=S)Nc1ccccn1	15
COc1ccc(-c2c(C)nn3c(-c4ccccc4)cc(C)nc23)cc1	17
CCN(CC)S(=O)(=O)c1ccc(Cl)c(C(=O)NC(C)C(c2cccs2)N2CCCC2)c1 (centres undefined)	10
O=C(CNC(=O)c1ccccc1)N/N=C/c1cccs1	-6
CCOc1cccc(OCCCOc2cccc3cccnc23)c1	13
Cc1ccc(C(=O)/C=C/c2ccc(-c3ccc(C)cc3)o2)cc1	4
COc1ccc(/C=c2/sc3nc(-c4ccccc4)c(-c4ccccc4)n3c2=O)cc1	15
Cc1ccc(NC(=O)COC(=O)C2CC2(Cl)Cl)cc1C (centres undefined)	16
COc1cc(NC(=O)c2cc(C)on2)cc(C(=O)Nc2cccc(C(F)(F)F)c2)c1	10
Cc1c(/C(O)=C2/C(=O)C(=O)N(CCN(C)C)C2c2ccc(C(C)C)cc2)cnn1-c1ccccc1 (centres undefined)	26
CCOC(=O)/C(=N/Nc1ccc(OC)cc1)N1CCCc2ccccc21	22
CC1CCCCN1C(=O)CSc1nc2ccccc2[nH]1 (centres undefined)	18
O=[N+]([O-])c1cccc(C(=Nc2ccccc2)NO)c1	1
FC(F)Sc1ccc(NC(=S)NCc2ccccc2)cc1	10
Cc1oc(-c2ccc(F)cc2)nc1CN(Cc1ccccn1)CC1CCCO1 (centres undefined)	26
COc1ccc(Br)cc1CN(C)C(=O)c1ccc2c(c1)NC(=O)C(C)S2 (centres undefined)	8
O=C(CCl)NN=C(c1ccccc1)c1ccccc1	8
C/C(=N\NC(=O)Cn1c(C)nc2ccccc21)c1cccs1	8
O=C(CN1CCOCC1)Nc1c(Cl)cc(Cl)cc1Cl	2
CCc1cccc(C)c1NC(=S)NCC1CCN(c2ccc(OC)cc2)C1 (centres undefined)	19
Cc1cccc2c(N)c3c(nc12)CCCC3 (tested in a mixture with another compound)	23
CCN(CC)CC#CCC(O)(c1ccccc1)C1CCCCC1 (centres undefined)	7
CCN(C(=O)CSc1cc(C)c2ccccc2n1)c1c(N)n(Cc2ccccc2)c(=O)[nH]c1=O	14
Cc1nc(C(=O)NCC(=O)c2ccc(Cl)cc2)c(C(F)(F)F)o1	16
O=c1[nH]c(Nc2ccc3c(c2)OCCO3)nnc1Cc1ccccc1	4
Cc1nc(NC(=O)c2ccccc2[N+](=O)[O-])sc1C(=O)N(C)C	14
CC(C)C(c1nnnn1Cc1ccc2c(c1)OCO2)N1CCN(C)CC1 (centres undefined)	11
CCN(CC)C(=S)SCC(=O)Nc1ccc(S(N)(=O)=O)cc1	2
C#CCNC(=O)C1=C[C@@H](C2CC2)C[C@@H](OCc2ccc(CO)cc2)O1	15
CCCOC(=O)C1=C(C)NC2=C(C(=O)CC(C)(C)C2)C1c1cccnc1 (centres undefined)	8
O=C(C1=C[C@H](c2ccc3c(c2)OCO3)C[C@H](OCc2ccc(CO)cc2)O1)N1CCOCC1	12
COc1ccc(S(=O)(=O)Nc2cccc(C(C)=O)c2)cc1Br	4
CC1CN(C(=O)COC(=O)c2ccc(N)c([N+](=O)[O-])c2)CC(C)O1 (centres undefined)	7
Oc1ccc(/C=N/NC(=S)NCCN2CCOCC2)c(O)c1	15
C/C(=N\O)c1ccc(Cl)cc1Cl	10
O=C(Nc1ccc2c(c1)OCO2)N1CCC(CO)(CC2CCCCO2)CC1 (centres undefined)	10
O=[N+]([O-])c1ccccc1Oc1ccccc1Cl	7
Cc1nn(CC2CC2)c(=O)n1-c1ccc(Cl)cc1	1
CCn1ccnc1CN1CCc2c([nH]c3ccccc23)C1C1CCCCC1 (centres undefined)	9
Cn1c2c(c(=O)[nH]c1=O)C(c1cccc(O)c1)C1=C(N2)c2ccccc2C1=O (centres undefined)	2
Cc1ccccc1OCCSc1nnc(-c2cccnc2)n1N	20
NC(=O)NCc1cccnc1	-4
CCC(C)c1ccc(OCC(=O)Nc2ccc3[nH]c(=O)[nH]c3c2)cc1 (centres undefined)	11
O=C(Cc1ccc(Cl)cc1)Nc1cccc(S(=O)(=O)Nc2ccccc2F)c1	12
CC(=O)c1ccc(NC(=O)CO/N=C(\C)c2cccs2)cc1	1
O=C(NNS(=O)(=O)c1ccccc1)c1cccs1	16

Going on with the list.
SMILES	Biofilm kill mix
COc1cc(/C=N/NC(=S)Nc2cccnc2)cc(OC)c1O	17
Cc1cc(C(=O)Nc2ncn[nH]2)ccc1[N+](=O)[O-]	4
Cc1nc(CS(=O)(=O)c2ccccn2)sc1C(=O)NNC(=O)c1ccc(Cl)cc1	15
O=C(c1ccc(F)cc1)N(NC(=O)C(O)(c1ccccc1)c1ccccc1)c1ccccc1	17
Cc1cc(NC(=O)Cc2ccccc2)no1	14
Cc1ccc(S(=O)(=O)N/N=C/c2ccc(O)c(O)c2)cc1[N+](=O)[O-]	8
Cc1c(CCC(=O)O)c(=O)oc2c(C)c(OCc3cc4c(cc3Cl)OCO4)ccc12	19
CN(C)CCCN=Cc1c(-c2ccccc2)[nH]n(-c2nc3ccccc3s2)c1=O	14
CSCCC1NC(=O)N(CC(=O)N2N=C(c3ccc(Cl)cc3)CC2c2ccco2)C1=O (centres undefined)	23
COc1ccc2[nH]c3c(=O)n(CCN4CCOCC4)cnc3c2c1	20
Cc1cc(C)c2c(=O)n(CC(=O)NC3CCCC3)sc2n1	22
O=C(CN1CCC(O)(c2ccccc2)CC1)Nc1ccc2c(c1)OCCO2	20
CCCNC(=O)c1cc2cc([N+](=O)[O-])ccc2s1	10
COc1ccc(C(=O)NCc2nnc(SCC(=O)Nc3nnc(C)s3)o2)cc1OC	-1
COc1ccccc1CNC(=O)COC(=O)c1cc(C)oc1C	10
Cc1cc(C)nc(Nc2cc([N+](=O)[O-])ccc2C)n1	16
CCN(CC(=O)Nc1cccc(C(C)=O)c1)S(=O)(=O)c1ccc(C)cc1	-13
COc1ccccc1N1CCN(/N=C\C(Br)=C\c2ccccc2)CC1	4
O=C(CCn1c2c(c3ccccc31)CCCC2)NNC(=O)c1ccc([N+](=O)[O-])cc1	9
CC1(C)C(=O)OC(C(=O)c2ccccc2)C2(CCCCC2)C1=O (centres undefined)	0
CCc1ccc(CN2CCC(CO)(CC3CCCCO3)CC2)o1 (centres undefined)	1

18 neighbouring records from above:
SMILES	Biofilm kill mix
COc1cc(/C=N/NC(=S)Nc2cccnc2)cc(OC)c1O	17
Cc1cc(C(=O)Nc2ncn[nH]2)ccc1[N+](=O)[O-]	4
Cc1nc(CS(=O)(=O)c2ccccn2)sc1C(=O)NNC(=O)c1ccc(Cl)cc1	15
O=C(c1ccc(F)cc1)N(NC(=O)C(O)(c1ccccc1)c1ccccc1)c1ccccc1	17
Cc1cc(NC(=O)Cc2ccccc2)no1	14
Cc1ccc(S(=O)(=O)N/N=C/c2ccc(O)c(O)c2)cc1[N+](=O)[O-]	8
Cc1c(CCC(=O)O)c(=O)oc2c(C)c(OCc3cc4c(cc3Cl)OCO4)ccc12	19
CN(C)CCCN=Cc1c(-c2ccccc2)[nH]n(-c2nc3ccccc3s2)c1=O	14
CSCCC1NC(=O)N(CC(=O)N2N=C(c3ccc(Cl)cc3)CC2c2ccco2)C1=O (centres undefined)	23
COc1ccc2[nH]c3c(=O)n(CCN4CCOCC4)cnc3c2c1	20
Cc1cc(C)c2c(=O)n(CC(=O)NC3CCCC3)sc2n1	22
O=C(CN1CCC(O)(c2ccccc2)CC1)Nc1ccc2c(c1)OCCO2	20
CCCNC(=O)c1cc2cc([N+](=O)[O-])ccc2s1	10
COc1ccc(C(=O)NCc2nnc(SCC(=O)Nc3nnc(C)s3)o2)cc1OC	-1
COc1ccccc1CNC(=O)COC(=O)c1cc(C)oc1C	10
Cc1cc(C)nc(Nc2cc([N+](=O)[O-])ccc2C)n1	16
CCN(CC(=O)Nc1cccc(C(C)=O)c1)S(=O)(=O)c1ccc(C)cc1	-13
COc1ccccc1N1CCN(/N=C\C(Br)=C\c2ccccc2)CC1	4
